gsp antagonist – antagonists of gsp mutant (McCune-Albright syndrome); AID 624288; actives 0.4% (n = 340,000); gsp-mutant cells, cAMP HTRF, 30 min; control for the full effect not named in the record; Potency, µM (titrated, usually from 76.9 µM), for the others: top-dose activity change, negative = inhibition, hits mostly inhibitors; active = falling curve of any shape with a large fitted effect; inconclusive = falling curve, mostly with a smaller effect; inactive = flat or rising curve; cell line not stated here;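 also: intracellular cAMP measured with PDE inhibitor Ro 20-1724 present during compound exposure; potency is read from the fitted curve at half-maximal effect; % is scaled to controls: 0 for no effect and ±100 for the full control effect; nearly all actives have a fitted effect of over 65% in size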
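HTRF cAMP read-out (cAMP-d2 plus anti-cAMP antibody-K in lysis buffer, 30 min RT). Before lysis, cells are exposed to compounds with […] for 30 min at 37C in DPBS containing Ca/Mg, BSA and Tween 20.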
Sfp PPTase inh – inhibitors of Bacillus subtilis Sfp phosphopantetheinyl transferase. Q9F4F7. Biochemical Sfp PPTase activity, qHTS. Potency, µM, for the others: max response, negative = inhibition, most hits filed as inhibitors. actives 3.5% (n = 310,000). AID 1490; active = well fitted inhibition curve with a large enough effect; inconclusive = small, poorly fitted or top-dose-only effect, or another doubt; inactive = no such curve, though single readings can be large or run the other way;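 also: the enzyme is Sfp with the accession as filed and its product quenches rhodamine fluorescence; potency is read from the fitted curve at half-maximal effect; 0% = enzyme reaction without inhibitor and -100% = no enzyme wells; top concentration of the series not given in the record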
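Compounds were incubated with enzyme (final 15 nM) for 15 min at room temperature before substrate addition started the reaction. Fluorescence at 525 nm excitation, 598 nm emission was recorded immediately and after 30 minutes.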
ClpP mod – qHTS Assay for Activators of ClpP; purified B. subtilis ClpP, FRET peptide cleavage, 20 min; Potency, µM (doses to about 57.5 µM), without a hit: at the top dose activity change, negative = active; actives 1.9% (n = 340,000); ATP-dependent Clp protease proteolytic subunit (Bacillus subtilis (strain 168)), P80244; active = well fitted falling curve with a large enough effect; inconclusive = small, poorly fitted or top-dose-only effect; inactive = no such curve, though single readings can be large or run the other way; also: potency is read from the fitted curve at half-maximal effect; the source files actives as falling curves though it sought activators and does not explain the sign; nearly all actives have a fitted effect of over 65% in size; many hits overshoot -100%
Target sequence (P80244 whole entry, looked up): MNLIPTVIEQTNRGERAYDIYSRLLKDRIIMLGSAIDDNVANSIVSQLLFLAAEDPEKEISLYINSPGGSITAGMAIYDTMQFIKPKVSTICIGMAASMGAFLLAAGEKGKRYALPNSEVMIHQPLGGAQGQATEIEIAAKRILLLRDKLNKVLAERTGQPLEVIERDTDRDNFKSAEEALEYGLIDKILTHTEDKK
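Purified B. subtilis ClpP, 10 microg/mL final in Tris/HCl pH8 with KCl, BSA, glycerol and Tween-20, cleaved an Abz/nitrotyrosine-quenched decapeptide. Fluorescence (ex 320, em 430) was read at 0 and 20 min at room temperature. Delta was normalized to 5.8 microM ADEP and DMSO/no-enzyme controls.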
PINK1 modulator – changes PINK1 expression; PINK1 immunofluorescence, high-content cytometry, 24 h; Potency, µM (doses to about 76.6 µM), inactives show top-dose activation (PINK1 increase), most hits filed as activators; actives 0.2% (n = 410,000); active = well fitted activation curve with a large enough effect; inconclusive = small, poorly fitted or top-dose-only effect; inactive = flat fitted curve, though single readings scatter; cell line not stated here;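 also: potency is read from the fitted curve at half-maximal effect; % of control where 0% means no effect; nearly all actives have a fitted effect of over 65% in size; a mitochondrial uncoupler was the plate control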
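A stable cell line was treated with compounds at 5 concentrations for 24 hours, with CCCP as control. PINK1 levels and mitochondrial localization were measured by immunofluorescence with mitochondrial, cell and nuclear markers after fixation, read by laser-scanning cytometry.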
Menin-MLL FL inh – menin-MLL binding inhibition, fluorescein peptide | AID 1766 | 290,000 tested, under 10 active | Fluorescence polarization, fluorescein-MLL peptide displacement from menin | FP activity change, % at 61.4 µM; inconclusive = falling polarisation curve, or a change in total fluorescence; inactive = total fluorescence flat and polarisation flat or rising; no compound was filed as active; the % refers to the polarisation; negative = inhibition;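 also: % of control where 0% means no effect; inhibitors lower the polarisation; unlabelled MLL peptide was the positive control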
D2 agonist – agonists of human D2 dopamine receptor (beta-arrestin); P14416; DiscoveRx PathHunter D2 beta-arrestin, luminescence, 90 min; 100% = 57 uM dopamine signal; activation, % (no concentration beside the values); actives 0.084% (n = 360,000); AID 624465; in the data active = activation above about 40%; inconclusive = about 15% to 40%; inactive = below about 15%; also: compound concentration not given in the record; the text of the record calls up to 30% inactive
Target sequence (P14416 whole entry, looked up): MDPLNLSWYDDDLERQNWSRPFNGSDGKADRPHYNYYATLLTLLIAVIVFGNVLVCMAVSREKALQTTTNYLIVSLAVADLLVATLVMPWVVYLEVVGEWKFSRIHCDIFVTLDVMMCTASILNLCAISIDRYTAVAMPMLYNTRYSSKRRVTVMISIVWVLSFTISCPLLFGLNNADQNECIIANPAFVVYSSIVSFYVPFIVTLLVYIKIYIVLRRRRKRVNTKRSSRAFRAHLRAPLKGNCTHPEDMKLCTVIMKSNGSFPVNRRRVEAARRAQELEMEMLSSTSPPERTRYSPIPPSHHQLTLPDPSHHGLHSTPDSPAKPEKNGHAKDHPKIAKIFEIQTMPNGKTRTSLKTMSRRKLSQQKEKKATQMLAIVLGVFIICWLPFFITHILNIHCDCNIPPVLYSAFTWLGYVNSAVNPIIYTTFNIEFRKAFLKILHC
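Agonist mode: compounds alone added to overnight-plated D2 PathHunter cells for 90 min at 37 C, with 57 uM final dopamine (EC100) defining full response. Beta-arrestin recruitment detected by chemiluminescent reagent, read after 1 h at ambient temperature.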
gsp agonist – agonists of gsp mutant (McCune-Albright syndrome); gsp mutant cells, cAMP HTRF, 30 min; control for the full effect not named in the record; actives 0.13% (n = 340,000); Potency, µM (doses to about 76.9 µM), inactives show at the top dose activation (cAMP increase), actives largely listed as activators; active = well fitted activation curve with a large enough effect; inconclusive = small, poorly fitted or top-dose-only effect, or another doubt; inactive = no such curve, though single readings can be large or run the other way; cell line not stated here;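 also: phosphodiesterase inhibitor Ro 20-1724 added with compounds to block cAMP breakdown; potency is read from the fitted curve at half-maximal effect; nearly all actives have a fitted effect of over 60% in size; about a fifth of the inactives were tested at one dose only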
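Cells in DMEM/10% FBS with G418 were pretreated with compounds in DMSO plus […] (300 uM stock) for 30 min at 37C. cAMP was measured by HTRF (cAMP-d2 plus anti-cAMP antibody-K) after 30 min at room temperature.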
An asterisk follows results filed as active; ? = inconclusive; . = not tested or not shown; [ ] = dose if it differs, or a comment. Compounds were not picked by outcome. About 5.1% of those tested had a hit in this group.

The line under a structure holds: Menin-MLL FL inh, D2 agonist, PINK1 modulator, gsp antagonist, gsp agonist, ClpP mod, Sfp PPTase inh
- Cc1onc(-c2ccccc2)c1CNS(=O)(=O)c1cccc(Cl)c1
→ -0.7, -0.5, 0.1%, 3%, -3%[15.4 µM], 0.7%, -3%
- Cc1n[nH]c(C)c1NC(=O)CSc1nnnn1-c1cccc(F)c1
→ ., -0.2, 0.9%, 5%, 19%, -0.9%, .
- CSc1ccccc1C(=O)Nc1ccccc1C(=O)NC(C)C
→ -2.8, -1.9, -0.5%, 14%, 4%[15.4 µM], 0.3%, -6%
- CCOc1ccc(OCCCCNC(C)(C)C)cc1
→ -2.0, -2.3, -1.2%, 8%, -36%[inhibitor], -0.1%, ?
- CC(NC(=O)CNC(=O)C1O[C@@H]2OC(C)(C)O[C@@H]2[C@H]2OC(C)(C)O[C@@H]12)C(=O)O (some centres not stated)
→ 0.9, -4.1, -0.6%, -10%, -34%, -5.1%, 3%
- Cc1ccc(CNC(=O)C2CCC(=O)N2Cc2ccc(F)cc2)cc1 (configuration not stated)
→ 0.3, -0.9, 2.4%, 0%, ?, ., 5%
- CC(C)C[C@H](NC(=O)[C@@H](Cc1ccccc1)n1c(=O)[nH]c2ccccc2c1=O)C(=O)N[C@@H](Cc1ccccc1)C(=O)O
→ -7.4, -3.7, 0.8%, -1%, ., -12%, 13%
- C[C@@]12C(=O)N(Cc3ccc(Cl)cc3)CC(=O)N1[C@H]1c3ccccc3OC[C@@H]1[C@@H]2c1ccccc1
→ ., -0.9, 0.9%, -16%, 23%, 0.6%, .
- O=C(Cn1nc(-c2ccccc2)ccc1=O)NCc1ccc(F)cc1
→ 2.3, -4.5, 2.0%, 0%, -14%[15.4 µM], -11%, 16%
- CC(C)C(N)C(=O)NC(Cc1c[nH]c2ccccc12)C(=O)O (configuration not stated)
→ 2.2, ., -0.7%, ., ., ., ?
- COc1ccc(OC)c(NC(=O)N2CCCc3ccccc32)c1
→ -0.4, -1.7, -0.3%, -22%, 1%, -1.1%, 15%
- Cc1nn(C)c(C(=O)N/N=C/c2ccccc2)c1[N+](=O)[O-]
→ -0.1, -4.0, -0.5%, 9%, -40%[inhibitor], 1.2%, 5%
- CCc1occc(=O)c1Oc1cc(NN2CCCCC2)c([N+](=O)[O-])cc1[N+](=O)[O-]
→ 3.0, -1.2, 3.3%, -10%, 14%, 0.3%, 8%
- COC(=O)c1ccc2c(c1)S(=O)(=O)NC(=NCc1ccco1)S2
→ 2.2, -2.3, 1.1%, 1%, 0%, 1.3%, 0%
- CNC(=O)NC1CCCc2ccccc21 (configuration not stated)
→ -0.3, 0.6, 0.4%, 8%, 10%, 0.3%, 12%

Next section.
The line under a structure holds: Menin-MLL FL inh, D2 agonist, PINK1 modulator, gsp antagonist, gsp agonist, ClpP mod, Sfp PPTase inh
- C=CCc1cccc2cc(C(=O)Nc3ccc(S(=O)(=O)Nc4nnc(CC)s4)cc3)c(=O)oc12
→ 0.8, -2.3, -2.8%, ?, -1%, -2.3%, 79µM*
- N#CCN1CCC2(O)CCCCC2C1c1ccc2c(c1)OCO2 (configuration not stated)
→ -0.3, -4.1, -1.0%, -2%, 0%[15.4 µM], ., 11%
- Cn1c(=O)[nH]c(=O)c2c1nc(NCCCn1ccnc1)n2Cc1ccc(F)cc1
→ -1.1, -1.8, -0.4%, 11%, -3%, 1.5%, -4%
- Cc1ncsc1CCC(=O)N1CCCC(C(=O)c2ccc3c(c2)OCO3)C1 (configuration not stated)
→ 3.6, 0.0, 0.8%, -4%, -6%, -9.7%, 20%
- Cc1cc(SCc2cc(=O)n3ccsc3n2)nc2ccccc12
→ 7.9, -5.4, 3.8%, 9%, -25%[15.4 µM], 0.3%, -1%
- O=S(=O)(c1cccc2nsnc12)N1CCN(Cc2ccccc2)CC1
→ -1.5, -0.4, 1.9%, 4%, 4%[15.4 µM], ., 15%
- COc1ccc(COC(=O)CCCN=C2NS(=O)(=O)c3ccccc32)cc1F
→ ., -1.5, 0.5%, ., -53%[inhibitor], -3.7%, .
- COc1cnc(-c2ccccn2)nc1Sc1ccccc1
→ ?, -8.6, -0.7%, 2%, -9%[15.4 µM], ., ?
- FC(F)(Cl)c1nnc2ccc(Cl)nn12
→ 2.4, -2.7, 1.9%, 3%, -7%, -14%, 9%
- C=CCN1C(=O)C(O)(CC(=O)c2c(C)n[nH]c2C)c2cc(Br)ccc21 (configuration not stated)
→ 0.8, -0.7, 0.9%, 13%, 10%, 0.7%, 20%
- CC(C)CN1C(=O)NC(NC(=O)c2ccco2)(C(F)(F)F)C1=O (configuration not stated)
→ -2.0, -2.0, 0.4%, 8%, -28%, 0.4%, -1%
- CC(=O)c1cccc(CN2CCCC(CCC(=O)NCc3ccc(C)o3)C2)c1 (configuration not stated)
→ 0.1, -2.6, -0.5%, -11%, 6%[15.4 µM], ., -15%
- O=C(c1cc(-c2ccc(Cl)cc2)on1)N1CCCC1
→ 5.2, 9.5, 4.4%, 4%, ?, ., 5%
- CC(=O)Nc1cccc2c1C(=O)N(c1cccc(C)c1)C2=O
→ -1.8, 0.9, -0.7%, 4%, -1%, 0.4%, -2%
- COc1ccc(S(=O)(=O)N2CCC(C(=O)Oc3ccc(C)cc3)CC2)cc1OC
→ ., -2.9, 0.8%, -12%, -7%[15.4 µM], ., .

The list continues.
The line under a structure holds: Menin-MLL FL inh, D2 agonist, PINK1 modulator, gsp antagonist, gsp agonist, ClpP mod, Sfp PPTase inh
- NNC(=O)c1cnn(-c2ccccc2)c1C(F)(F)F
→ -3.2, 0.0, -0.4%, -1%, 0%[15.4 µM], 4.2%, 12%
- CCc1nc2ccc(C(=O)NC3CCN(Cc4ccccc4)CC3)cn2c1N(CC)Cc1cccc(Br)c1
→ ., -4.5, -1.2%, ., ., -15%, .
- CN(C)C(CNC(=O)c1cccc(S(=O)(=O)NCc2ccccc2)c1)c1ccccc1 (configuration not stated)
→ ., -2.2, -0.7%, -1%, 13%[15.4 µM], ., .
- S=c1[nH]nc(COc2ccccc2)n1/N=C/c1ccc(Br)cc1
→ -12, 1.6, 1.9%, -19%, -15%, -0.6%, 63µM*
- O=C(CN1c2cccc3cccc(c23)S1(=O)=O)NC1CCCCC1
→ ., 0.5, -0.1%, 0%, 15%, -25%, .
- NC(COCc1ccccc1)c1csc(Nc2ncccn2)n1 (configuration not stated)
→ ., -1.2, 1.0%, ., ., 0.9%, .
- COc1cccc(CNS(=O)(=O)c2cc3c4c(c2)CCN4C(=O)CC3)c1
→ ., 1.4, 0.4%, 7%, -6%, -7.2%, .
- COc1cc2c(cc1OC)C(c1ccc(Br)cc1)NC(=O)C2 (configuration not stated)
→ 5.0, 2.0, 0.5%, -3%, 5%, -3.4%, 10%
- CCC(C(=O)NCc1ccco1)N(C(=O)CNS(=O)(=O)c1ccccc1)c1ccccc1C (configuration not stated)
→ 1.1, 0.5, -1.5%, -7%, -9%[15.4 µM], ., 23%
- CC1CCCC(C)N1C(=O)CNCc1ccc2c(c1)OCO2 (configuration not stated)
→ -0.5, -9.2, 0.7%, 4%, -14%, -1.0%, -11%
- CCCn1c(=O)c(C(=O)NCCCc2ccccc2)c(O)c2ccccc21
→ -1.4, -3.8, 23%, -3%, -13%, ?, -3%
- N/C(Cn1cncn1)=N\NC(=O)c1ccc(Cl)cc1Cl
→ 0.0, 0.6, 0.9%, 10%, -3%[15.4 µM], ., 0%
- COC(=O)Cn1c(=NC(=O)c2ccc(S(=O)(=O)N3CCOCC3)cc2)sc2cc(S(N)(=O)=O)ccc21
→ 1.1, -2.2, 10%, -13%, ?, -26%, 1%
- CCOC(=O)C/C(=N\Nc1ncnc2ccccc12)c1ccccc1
→ -4.4, -2.8, -0.3%, -6%, -50%[inhibitor], ., -8%
- Cc1ccc(S(=O)(=O)N(C)CC(=O)OCC(=O)NC(=O)Nc2ccc3c(c2)OCCO3)cc1
→ 3.9, -0.9, -1.6%, -21%, -3%, 2.1%, -13%

With a hit mark in Sfp PPTase inh, of those listed so far:
Molecule	Menin-MLL FL inh	D2 agonist	PINK1 modulator	gsp antagonist	gsp agonist	Sfp PPTase inh
C=CCc1cccc2cc(C(=O)Nc3ccc(S(=O)(=O)Nc4nnc(CC)s4)cc3)c(=O)oc12	0.8	-2.3	-2.8%	?	-1%	79µM*
S=c1[nH]nc(COc2ccccc2)n1/N=C/c1ccc(Br)cc1	-12	1.6	1.9%	-19%	-15%	63µM*

New compounds follow:
The line under a structure holds: Menin-MLL FL inh, D2 agonist, PINK1 modulator, gsp antagonist, gsp agonist, ClpP mod, Sfp PPTase inh
- CCOc1ccc(NC(=O)CCC(=O)NNS(=O)(=O)c2ccccc2[N+](=O)[O-])cc1
→ ?, 2.9, 1.2%, 1%, -8%[15.4 µM], ., -11%
- CCC(=O)N1CCCc2cc(S(=O)(=O)N3CCN(c4ccccc4F)CC3)ccc21
→ 1.7, 0.1, -0.1%, -13%, -39%[inhibitor], 1.3%, -11%
- CC(C)CC(NC(=O)C1CCC(C)CC1)C(=O)N1CCN(c2ccccn2)CC1 (configuration not stated)
→ 2.9, -5.5, -1.4%, -2%, -25%, 4.0%, -11%
- Cc1n[nH]c(=O)n(N=Cc2c[nH]c3ccccc23)c1=O
→ ., -5.5, 1.2%, ., -54%[inhibitor], 0.8%, .
- Cc1cc(C(=O)NCc2cccs2)no1
→ 3.5, -0.4, -2.6%[38.3 µM], 8%, -28%, -0.1%, 29%
- CC#CCN1c2ccccc2[C@]23C[C@@H](C(=O)OC)N(C(=O)NCCBr)C2=NC(C(=O)OC)=C(C(=O)OC)[C@H]13
→ ., -0.4, 0.7%, -1%, 4%, 1.5%, .
- COc1cc(C(=O)Oc2cccc(/C=N/NC(=O)c3cccnc3)c2)cc(OC)c1OC
→ -1.8, 1.1, 0.1%, -2%, 20%[15.4 µM], ., 17%
- CN(C)S(=O)(=O)c1ccc(=S)[nH]c1
→ -1.9, -4.7, 0.7%, -1%, 5%, -2.2%, ?

Screens deposited in PubChem by National Center for Advancing Translational Sciences (NCATS).
